PKD1 kinase inh: blocks activity of human protein kinase D1; Q15139; PKD1 kinase fluorescence polarization assay; inhibition, %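 (about 10 µM by stock and volumes)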; 200,000 tested, 0.056% active; AID 797;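 active = inhibition of 50% or more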;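 also: controls were vehicle for no effect and a reference inhibitor for full effect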
Target sequence (Q15139 whole entry, looked up): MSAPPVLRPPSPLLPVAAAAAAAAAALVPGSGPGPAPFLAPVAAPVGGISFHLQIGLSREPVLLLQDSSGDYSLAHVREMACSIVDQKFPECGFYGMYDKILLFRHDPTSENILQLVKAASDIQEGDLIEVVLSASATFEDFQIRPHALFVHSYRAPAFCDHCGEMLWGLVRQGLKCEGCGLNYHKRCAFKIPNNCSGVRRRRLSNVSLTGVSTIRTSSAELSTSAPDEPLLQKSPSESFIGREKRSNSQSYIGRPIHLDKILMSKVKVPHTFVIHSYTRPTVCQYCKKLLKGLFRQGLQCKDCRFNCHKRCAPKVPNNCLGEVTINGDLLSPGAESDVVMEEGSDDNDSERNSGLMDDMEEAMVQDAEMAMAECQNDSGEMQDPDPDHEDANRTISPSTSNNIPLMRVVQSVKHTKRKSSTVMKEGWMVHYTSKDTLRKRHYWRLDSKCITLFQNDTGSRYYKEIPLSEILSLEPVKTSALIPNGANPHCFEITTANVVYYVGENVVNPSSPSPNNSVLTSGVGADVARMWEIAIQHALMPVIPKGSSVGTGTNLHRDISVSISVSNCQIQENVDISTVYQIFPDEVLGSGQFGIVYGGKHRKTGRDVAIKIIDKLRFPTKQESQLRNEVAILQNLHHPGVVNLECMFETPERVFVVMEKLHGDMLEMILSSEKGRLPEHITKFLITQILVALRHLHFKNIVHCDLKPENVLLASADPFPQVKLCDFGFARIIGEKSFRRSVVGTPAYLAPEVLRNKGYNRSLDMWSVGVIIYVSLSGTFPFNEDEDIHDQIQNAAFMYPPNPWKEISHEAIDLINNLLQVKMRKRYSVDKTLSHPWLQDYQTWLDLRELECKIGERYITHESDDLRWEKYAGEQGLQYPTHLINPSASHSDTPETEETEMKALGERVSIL
HSV augment: HSV replication enhancement; HSV replication augmentation in cells, fold increase; 220,000 tested, 0.005% active; AID 1956; maximum fold increase;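 active = peak rise of 1.5-fold or more in the series; tested in PC3 cells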;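 also: first round at 10 µM; read as green reporter fluorescence; hits show the peak of a series up to 25 µM; 1 = signal of infected wells without compound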
GALR2 agonist: agonists of human galanin receptor 2 (GALR2). O43603. GALR2-expressing cells, agonist activation read-out. activation, %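 (tested at 5 µM)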. 140,000 tested, 0.48% active. AID 803;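 active = above mean plus 3 SD of all compounds, about 5% in these data, not always enough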;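 also: 0% = vehicle buffer wells and 100% = reference agonist at full effect; tested in CHO reporter cells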
RGS16-Gao HTS: regulators of human RGS16-Galphao interaction. O15492+P09471. bead-based flow cytometry RGS16-Galphao binding, fluorescence; actives lie on both sides. binding response (% of control), % at 10 µM. 220,000 tested, 0.38% active;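 active = below 25% or above 175%, edge rows of some plates excepted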;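 also: Galphao activated by GDP with aluminum fluoride before binding; 100% = wells without compound and 0% = beads without RGS; some results beyond the cut were filed as inactive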
INS promoter inh: TRM-6 insulin promoter activity inhibition | inhibition, % at 2 µM | TRM-6 cells (human fetal islet line), insulin promoter-eGFP reporter, imaging; reporter expression induced with tamoxifen | 130,000 tested, 0.9% active;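 active = inhibition above the mean plus 3 SD, with well images judged a real hit on visual review, cut at about 60% in these data, passing the limit was not always enough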
INS promoter inh cell count: further read-out of INS promoter inh, marked with its call; normalized cell count, %; measured here: cell count, toxicity; reference of the scale not given here;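 cells exposed to compound for 48 h; stained nuclei by imaging scaled within each plate; lower means fewer cells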
HSV augment primary fold: second read-out of HSV augment, no call of its own (marks repeat the call); fold increase; compound at 10 µM; measured here: primary screen fold increase 10 uM; tested in PC3 cells;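 GFP signal in the first replicate; 1 = infected wells without compound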
An asterisk follows results filed as active; i = inactive; x = not tested or not shown; & = joins results of further samples.

SMILES | PKD1 kinase inh | HSV augment | HSV augment primary fold | GALR2 agonist | RGS16-Gao HTS | INS promoter inh | INS promoter inh cell count
Cc1cc(-c2ccco2)c(C#N)c2nc3ccccc3n12 | -19 | i | 1.1 | 0.7 | 90 | -19 | 100
COc1cccc(CNC(=O)CCC2CCCN(C(=O)c3ccoc3)C2)c1 (configuration not stated) | 0 | i | 1 | x | 119 | x | x
CCC(CC)NC(=O)Cn1c(C(C)NC(C)=O)nc2ccccc21 (configuration not stated) | x | i | 0.87 | x | 105 | x | x
O=S(=O)(c1ccc(Br)cc1Cl)N1CCN(CCO)CC1 | -1 | i | 0.94 | x | 108 | -20 | 142
O=C(NC1CCCC1)c1ccc(CNc2c(N3CCOCC3)c(=O)c2=O)cc1 | 1 | i | 0.91 | -1.7 | 112 | x | x
Cc1cc(C)n(CC(=O)N/N=C/c2cccs2)n1 | -1 | i | 1 | 0.5 | 99 | -3 | 147
COc1ccc(C(=O)O)cc1S(=O)(=O)Nc1cccc(C(F)(F)F)c1 | -2 | i | 0.99 | -3.0 | 109 | 35 | 121
COc1ccc(-c2csc(/C(C#N)=C/Nc3cc4oc5ccccc5c4cc3OC)n2)cc1 | 0 | i | 1.1 | x | 104 | -35 | 102
O=c1c2ccsc2ncn1Cc1cccc(C(F)(F)F)c1 | 1 | i | 0.93 | 0.5 | 84 | -77 | 98
COC(=O)CCn1nc(-c2ccc(C)cc2)c2ccccc2c1=O | -2 | i | 1.2 | x | 101 | -100 | 78
Nc1ccn([C@H]2CC[C@@H](CO)O2)c(=O)n1 | -3 | i | 0.64&0.73 | x | 99&107 | -20 | 122
COC(=O)c1sc2nc3c(c(-c4cccs4)c2c1N)CCCC3 | -9 | i | 0.99 | -0.5 | 101 | 14 | 125
CCS(=O)(=O)NC(C)C(c1cccs1)N1CCN(c2ccc(F)cc2)CC1 (configuration not stated) | 13 | i | 1.2 | -2.0 | 108 | x | x
C/C(=C1\SC(N2CCOCC2)=NC1=O)c1ccc(C)cc1 | -10 | i | 0.97 | -0.5 | 100 | x | x
C/C(=C\c1ccccc1)C(=O)Nc1ccc(S(=O)(=O)Nc2ncccn2)cc1 | 3 | i | 0.98 | x | 97 | x | x
CC(C)OC(=O)c1cc(-c2ccc(C=O)o2)ccc1Cl | -10 | i | 1 | -0.1 | 106 | 50 | 89
c1ccc2c(c1)CCN(c1nc(CN3CCOCC3)nc3sc4c(c13)CCCC4)C2 | -3 | i | 0.93 | 1.3 | 97 | -35 | 96
O=C(/C=C/c1cccc([N+](=O)[O-])c1)NCCN1C(=O)S/C(=C\c2cccnc2)C1=O | 0 | i | 0.9 | x | 101 | x | x
CC(C)CCN1C(=O)CC(NNC(=O)c2ccc(S(=O)(=O)N3CCCC3)cc2)C1=O (configuration not stated) | x | i | 0.94 | x | 99 | x | x
O=C(CCN1CCc2ccccc2C(c2ccccc2)C1)c1ccc2c(c1)OCCO2 (configuration not stated) | 0 | i | 0.94 | -2.1 | 63 | 31 | 229
Cc1ccc(C(=O)C(OC(=O)c2c(C)cc(=O)oc2C)c2ccccc2)cc1 (configuration not stated) | 5 | i | 1 | x | 101 | x | x
CCc1[nH]nc2c1C1(CCOC1C)C(C#N)=C(N)O2 (configuration not stated) | -3 | i | 0.99 | -1.4 | 106 | 17 | 101
CCc1c(C)nc(SCC(=O)N2CCCCC2CC)[nH]c1=O (configuration not stated) | x | i | 0.94 | x | 101 | x | x
Cc1cc(N2CCCC2)ccc1/C=N/n1cnnc1 | 0 | i | 0.95 | -0.5 | 101 | 0 | 118
CC(C)n1c(Sc2nccn2C)nc2c1c(=O)n(C)c(=O)n2C | -6 | i | 0.91 | -0.5 | 98 | x | x
CCCc1nc(SCc2ccc(Cl)cc2Cl)n[nH]1 | -8 | i | 1 | -2.7 | 98 | 62 | 172
COc1ccc(C)cc1NC(=O)CC(O)(C(F)(F)F)C(F)(F)F | -4 | i | 0.73 | -1.2 | 104 | x | x
CC1CCN(CC(=O)N2CC(=O)Nc3ccccc32)CC1 | -3 | i | 1 | -4.3 | 104 | 52 | 111
COc1ccc([N+](=O)[O-])cc1NC(=O)COC(=O)c1ccccc1O | x | i | 1.1 | x | 95 | x | x
CCC(Sc1nc2sc(C(=O)OC)c(C)c2c(=O)n1N)C(=O)N(CC)CC (configuration not stated) | -2 | i | 0.78 | -0.9 | 103 | 58 | 84
COc1ccc(CCNc2nc(=O)[nH]nc2C)cc1OC | 0 | i | 0.79 | -0.2 | 101 | 50 | 136
O=c1oc(Nc2ccccc2F)nc2ccccc12 | 0 | i | 0.88 | -2.4 | 98 | -6 | 66
O=C(Nc1ccc(F)cc1)c1nc[nH]c1C(=O)Nc1ccccc1[N+](=O)[O-] | 9 | i | 0.91 | -1.1 | 94 | -22 | 107
CCOC(=O)c1c(NC(=O)Cc2cccs2)sc(C(=O)N2CCCCC2)c1C | -12 | i | 0.96 | -1.7 | 108 | -3 | 68
COc1ccccc1OCCCOc1c(Cl)cc(C)cc1Cl | -2 | i | 0.95 | -0.3 | 107 | -13 | 124
CCC(c1nnnn1Cc1ccco1)N(Cc1ccccc1OC)Cc1cc2cc(C)ccc2[nH]c1=O (configuration not stated) | 1 | i | 1 | -2.0 | 47 | x | x
CC1(C)CC2CC(C)(CN2/C=N/c2sc3c(c2C#N)CC(C)(C)NC3(C)C)C1 (configuration not stated) | x | i | 0.82 | x | 100 | x | x
CN(C)c1ccc(C(=O)N2CC(=O)N(CCc3ccccc3)C(=O)C2)cc1 | 1 | x | x | -1.7 | 102 | 32 | 93
Cc1n[nH]c(=O)n1-c1ccc(Oc2ccccc2)cc1 | 1 | i | 0.88 | -4.2 | 97 | -32 | 41
COc1cc(NC(=O)COC(=O)c2cnccn2)c(C)cc1[N+](=O)[O-] | x | i | 1 | x | 109 | x | x

Whole records, quoted from the list. Screens in order: PKD1 kinase inh, HSV augment, HSV augment primary fold, GALR2 agonist, RGS16-Gao HTS, INS promoter inh, INS promoter inh cell count
`Cc1ccc(C(=O)C(OC(=O)c2c(C)cc(=O)oc2C)c2ccccc2)cc1` (configuration not stated) is entered as 5, i, 1, x, 101, x, x
`Cc1n[nH]c(=O)n1-c1ccc(Oc2ccccc2)cc1` is entered as 1, i, 0.88, -4.2, 97, -32, 41
`O=c1oc(Nc2ccccc2F)nc2ccccc12` is entered as 0, i, 0.88, -2.4, 98, -6, 66
`CCC(Sc1nc2sc(C(=O)OC)c(C)c2c(=O)n1N)C(=O)N(CC)CC` (configuration not stated) is entered as -2, i, 0.78, -0.9, 103, 58, 84
`CCc1c(C)nc(SCC(=O)N2CCCCC2CC)[nH]c1=O` (configuration not stated) is entered as x, i, 0.94, x, 101, x, x

The list continues.
SMILES | PKD1 kinase inh | HSV augment | HSV augment primary fold | GALR2 agonist | RGS16-Gao HTS | INS promoter inh | INS promoter inh cell count
CNC(=O)c1nnc(Cc2ccc(Cl)cc2)o1 | -3 | i | 0.91 | -0.8 | 91 | x | x
CCCCN1C(=S)SC(C)(C)C1/[N+]([O-])=C/c1cccnc1 (configuration not stated) | 9 | i | 1 | -0.5 | 98 | 16 | 63
CCOC(=O)CSc1nnc(CCc2nc3ccccc3[nH]2)n1C | -7 | i | 0.97 | -0.3 | 100 | -13 | 170
Clc1cccc(-c2nnc3n2CCCCC3)c1 | 5 | i | 0.97 | x | 103 | x | x
O=C(NCc1ccc(Cl)cc1)C1CCN(S(=O)(=O)N2CCOCC2)CC1 | 13 | x | x | x | 101 | -14 | 117
CN(C)/C=C(\C=O)c1cccc(Cl)c1 | 4 | i | 1.1 | x | 106 | x | x
CC(C)OC(=O)CC12CN3CC(CC(=O)OC(C)C)(CN(C1)C(=O)c1ccccc1C3=O)C2=O | 12 | i | 0.99 | -2.6 | 100 | -6 | 95
CCCC(=O)Nc1ccc2nc(SCC(=O)Nc3ccc(N4CCOCC4)c(Cl)c3)sc2c1 | 12 | i | 0.93 | -2.8 | 95 | x | x
CCCn1c(CCC(=O)Nc2ccccc2Cc2ccccc2)nc2cc(S(=O)(=O)N3CCOCC3)ccc21 | -7 | i | 0.98 | 0.5 | 21 | -100 | 87
CCC(C)(C)n1nnnc1C(c1ccc(OC)c(OC)c1)N1CCN(c2ccc(OC)cc2)CC1 (configuration not stated) | -3 | i | 1.1 | 0.4 | 97 | x | x
CCSc1nnc(-c2ccc(S(=O)(=O)NCc3cccs3)cc2)o1 | -5 | i | 1 | -0.6 | 110 | x | x
O=C(Nc1ccc(Cl)c(S(=O)(=O)N2CCOCC2)c1)c1ccc2c(c1)OCCO2 | -2 | i | 0.95 | x | 98 | 0 | 103
CCC(NC(=O)c1cccc(Cn2cc([N+](=O)[O-])cn2)c1)c1ccc(C(C)C)cc1 (configuration not stated) | -4 | i | 0.91 | -0.2 | 213 | -27 | 85
O=C(NC1=NCCS1)c1cccc(NC(=O)c2ccco2)c1 | -8 | i | 0.93 | -1.4 | 102 | -1 | 46
COc1ccc(OC)c(S(=O)(=O)Nc2c(F)cccc2F)c1 | -9 | i | 1 | -1.9 | 122 | -12 | 139
O=C(CNS(=O)(=O)c1ccccc1)N1CCCC1 | -3 | i | 0.99 | x | 102 | 6 | 126
CC1CN(c2cc(=O)n(-c3ccc(Cl)cc3)c(=O)[nH]2)CC(C)O1 (configuration not stated) | 5 | i | 1 | x | 102 | -26 | 116
O=c1[nH]c(-c2ccccc2Cl)nc2c1sc(=S)n2-c1ccccc1 | -3 | i | 1 | x | 103 | x | x
C/C=C/COc1nc2c(c(=O)n(C)c(=O)n2C)n1C | -1 | i | 1 | -0.2 | 102 | -51 | 84
CCC(CO)n1c(SCc2cc(=O)oc3cc(C)ccc23)nc2ccccc2c1=O (configuration not stated) | 1 | i | 0.91 | -0.7 | 104 | 62 | 83
CC(=O)OC(C(=O)NC1CCCCC1)c1ccc(Cl)c(Cl)c1 (configuration not stated) | -1 | i | 1.1 | x | 109 | x | x
CC(=O)N1CCC2(CC1)CC(=O)c1cc(OCC(=O)N3CCCC3)ccc1O2 | -7 | i | 0.88 | x | 102 | 7 | 138
O=C(NN1C(=O)c2ccccc2C1=O)c1ccncc1 | 6 | i | 1 | x | 109 | x | x
O=C(Nc1nc2nc(-c3ccccc3)cc(-c3ccccc3)n2n1)c1ccco1 | 9 | i | 0.9 | -0.9 | 100 | 9 | 120
O=C(CCC(=O)N/N=C/c1c[nH]c2ccccc12)NCc1ccccc1 | -11 | i | 1 | 3.4 | 110 | 0 | 93
CCn1c(=O)cc(SCC(=O)Nc2ccc(OC)c(OC)c2)c2ccccc21 | -2 | i | 0.93 | -3.1 | 101 | 23 | 156
Cc1ccc(/C=N/NC(=O)c2ccccc2OCc2cccc(Br)c2)o1 | 6 | i | 0.88 | x | 100 | x | x
Cc1ccc(-n2c(COc3cccc(C)c3)n[nH]c2=S)cc1 | 7 | i | 0.9 | x | 99 | x | x
CCN(CC)S(=O)(=O)c1cccc(-c2nnc(SCCCC(=O)c3ccc(F)cc3)o2)c1 | -7 | i | 0.86 | 0.8 | 99 | x | x
COCCN(CCOC)Cc1c(C)[nH]c2c(C)c(C)ccc2c1=O | -5 | i | 0.71 | -3.1 | 100 | x | x
COc1ccc(-n2c(SCC(=O)Nc3ccccc3)nnc2-c2ccc(NS(=O)(=O)c3ccc(C)cc3)cc2)cc1 | -7 | i | 0.65 | -2.0 | 104 | 13 | 82
O=C(CSc1nnc(-c2ccccc2)o1)Oc1ccc(Br)cc1 | 1 | i | 0.74 | 0.1 | 102 | -29 | 160
CCOc1ccc(-c2noc(CCCC(N)=O)n2)cc1OC | 3 | i | 0.98 | -3.4 | 95 | -3 | 139
CCCNC(=O)c1ccc2c(=O)n(Cc3ccco3)c(=S)[nH]c2c1 | 0 | i | 1 | x | 105 | 58 | 70
Cn1c(=O)cc(OCC(=O)NCc2cccnc2)c2ccccc21 | -12 | i | 1.1 | -2.4 | 92 | -18 | 85
O=c1c2ccc(Cl)cc2nc(-c2cccc(C(F)(F)F)c2)n1O | 5 | i | 0.88 | -2.2 | 100 | x | x
COc1cccc(NC(=O)CSc2nnc(Cn3c(=O)sc4ccccc43)n2C)c1 | -12 | i | 1.2 | -1.3 | 101 | x | x
Cc1cc(C)c2sc(NNC(=O)C3COc4ccccc4O3)nc2c1 (configuration not stated) | -8 | x | x | -0.3 | 105 | -10 | 61
COc1ccc(OC)c(NC(=O)c2ccc(NC(C)=O)cc2)c1 | -1 | i | 0.96 | -0.3 | 104 | -64 | 94
CCOC(=O)C(=O)Nc1ccccc1C(=O)NCc1ccccc1 | -7 | i | 0.99 | x | 100 | x | x
CN(C(=O)CSc1nc(N)nn1-c1ccccc1)c1ccccc1 | -7 | i | 0.95 | -1.6 | 93 | x | x

Source: PubChem BioAssay (several laboratories)
